DUX4 inh – DUX4-mediated transcription inhibition; hit rate 0.8% among 37,000; AID 1224904; activity change, negative = inhibition, % (test concentration not listed); 293T-iDUX4 ZSCAN4-Gaussia luciferase reporter, 24 h; stronger effect = lower value;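 active = -10% or lower and over 25 points stronger than a control reporter; inconclusive = -10% or lower with a smaller gap; inactive = above -10%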;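 also: 0% = median of neutral control wells and -100% = median of positive control wells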
DUX4 inh difference – also measured in DUX4 inh; calls as there; Gaussia minus Italica difference, %; measured here: selective DUX4 reporter inhibition;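 worked out from the two reporters; negative = selective loss of the DUX4 reporter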
DUX4 inh control – also measured in DUX4 inh; calls as there; activity change, negative = inhibition, %; measured here: Italica tet-on control reporter;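 0 = neutral control and -100 = positive control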
An asterisk follows results filed as active; ? = inconclusive; nt = not tested or not shown; & = joins results of further samples. These rows are one share of the data; the hit share may differ from the screen's.

nr	DUX4 inh	DUX4 inh difference	DUX4 inh control	mol
1	?	nt	nt	O=C(Cc1ccncc1)Nc1ccc2c(c1)[C@H]1C[C@H](CC(=O)N3CCc4ccccc4C3)O[C@H](CO)[C@H]1O2
2	7	-1	7.7	O=S(=O)(c1ccccc1)N1CC[C@@H]2[C@H]1c1cc(Br)ccc1N[C@@H]2CO
3	-1	3	-4.0	Cc1ccc(-c2ccc([C@@H]3[C@@H](CO)N4C(=O)CN(C(=O)NC(C)C)C[C@H]34)cc2)cc1
4	16	12	4.2	OC[C@@H]1[C@@H](c2ccccc2)C2(CN(Cc3ccccn3)C2)N1CCC(F)(F)F
5	-4	-2	-2.6	O=C(C[C@@H]1C[C@H]2c3cc(NC(=O)c4ccc5c(c4)OCO5)ccc3O[C@H]2[C@@H](CO)O1)NCc1cc(F)ccc1F
6	5	-2	6.8	C[C@H](CO)N1C[C@H](C)[C@H](CN(C)CC2CC2)OCCCC[C@H](C)Oc2ccc(NC(=O)c3ccccc3)cc2C1=O
7	?	nt	nt	COc1ccc(C#Cc2ccc([C@@H]3[C@@H](CO)N4CCCCN(C(=O)Nc5cccc(F)c5)C[C@H]34)cc2)cc1
8	4	0	4.2	CCCNC(=O)Nc1ccc2c(c1)C(=O)N(C)[C@H]1CC[C@@H](CC(=O)NCCCN(C)C)O[C@H]1CO2
9	?	nt	nt	COc1ccc(S(=O)(=O)N2CCCCN3[C@H](CO)[C@H](c4ccc(C#CC(C)C)cc4)[C@@H]3C2)cc1
10	1	-5	5.6	COc1ccccc1NC(=O)N1C[C@H]2[C@@H](c3ccccc31)[C@H](CO)N2Cc1ccccc1F
11	2	2	-0.1	Cc1noc(C)c1S(=O)(=O)Nc1ccc2c(c1)C(=O)N([C@@H](C)CO)C[C@@H](C)[C@@H](CN(C)C(=O)Nc1cccc3ccccc13)OCCCC[C@H](C)O2
12	-2	-5	3.4	CC(=O)N1[C@H](CO)[C@@H](c2ccccc2)C12CN(C(=O)Cc1ccccc1)C2
13	1	4	-3.4	COCCNC(=O)[C@H]1[C@H](CO)[C@H]2Cn3c(ccc(-c4ccccc4F)c3=O)[C@H]2N1C(=O)C1CCC1
14	6	-10	16	Cc1ccc(CN2CC(=O)N3[C@H](CO)[C@H](c4ccc(Br)cc4)[C@@H]3C2)cc1
15	7	-3	9.8	COc1ccccc1CNC(=O)C[C@@H]1CC[C@H]2[C@@H](COC[C@H](O)CN2C(=O)Nc2ccc(F)cc2)O1
16	-4	-2	-2.1	O=C(C[C@@H]1CC[C@@H](NC(=O)CC2CC2)[C@H](CO)O1)NCc1ccc(-c2ccccc2)cc1
17	6	5	1.2	O=C(c1cnccn1)N1CC(=O)N2[C@H](CO)[C@@H](c3ccc(C#CCC4CCCC4)cc3)[C@H]2C1
18	4	3	0.2	Cc1ccc(S(=O)(=O)Nc2ccc3c(c2)C(=O)N([C@H](C)CO)C[C@@H](C)[C@H](CN(C)C(=O)NC2CCCCC2)OCCCC[C@H](C)O3)cc1
19	3	3	-0.1	O=C(N[C@H]1CC[C@@H](CCNC(=O)C2CCOCC2)O[C@@H]1CO)c1ccccn1
20	-5	-4	-0.6	O=C(C[C@@H]1C=C[C@H](NS(=O)(=O)c2ccccc2)[C@H](CO)O1)NCCN1CCCCC1
21	12	4	8.2	CC(=O)N1CC(=O)N2[C@H](CO)[C@@H](c3ccc(-c4ccncc4)cc3)[C@H]2C1
22	1	-1	1.5	C[C@@H]1CN([C@H](C)CO)C(=O)c2cc(C#C[C@@H](C)O)cnc2O[C@H]1CN(C)Cc1cncnc1
23	5	2	2.8	COc1ccccc1-c1ccc([C@H]2[C@H](C#N)N(C(=O)CN(C)C)[C@H]2CO)cc1
24	3	2	1.3	O=C(C[C@@H]1C[C@@H]2c3cc(NC(=O)Nc4ccc(C(F)(F)F)cc4)ccc3O[C@@H]2[C@H](CO)O1)NCc1ccc2c(c1)OCO2
25	?	nt	nt	O=C(NC1CCCCC1)N1CC(=O)N2[C@H](C1)[C@H](c1ccc(-c3cccc(F)c3)cc1)[C@@H]2CO
26	-4	-3	-0.2	CO[C@H]1CN(C)C(=O)c2ccc(NC(=O)C3CC3)cc2OC[C@@H](C)N(CCc2ccccc2)C[C@H]1C
27	7	6	1.6	C/C=C/c1cnc2c(c1)C(=O)N([C@H](C)CO)C[C@@H](C)[C@@H](CN(C)CC1CCOCC1)O2
28	-4	-5	1.5	CC=Cc1ccc2n(c1=O)C[C@@H]1[C@@H](CO)[C@H](C(=O)OC)N(C(C)=O)[C@H]21 (mixture of isomers)
29	-6	-1	-5.2	COCCN(C[C@@H]1N[C@@H](CO)[C@@H]1c1ccc(-c2cccc(F)c2)cc1)C(C)=O
30	?	nt	nt	C[C@H]1CN([C@@H](C)CO)C(=O)CCCn2cc(nn2)CO[C@@H]1CN(C)C(=O)Nc1ccc2c(c1)OCO2
31	?	nt	nt	C[C@H](CO)N1C[C@H](C)[C@H](CN(C)S(=O)(=O)c2ccccc2F)OCc2ccccc2-c2c(n(C)c3ccccc23)C1=O
32	2	-2	4.6	COCC(=O)N1CC2(C1)[C@@H](c1ccc(-c3ccccc3)cc1)[C@@H](CO)N2C(C)=O
33	1	10	-8.6	CNC[C@H]1Oc2ccc(NC(=O)Nc3ccc(F)cc3)cc2C(=O)N([C@H](C)CO)C[C@@H]1C
34	0	0	-0.5	COc1cccc(NC(=O)N[C@H]2CC[C@H](CC(=O)N3CCN(C)CC3)O[C@@H]2CO)c1
35	-1	-6	4.9	CC=Cc1ccc2n(c1=O)C[C@@H]1[C@@H](CO)[C@H](C(=O)NCc3ccc(F)cc3)[C@H]2N1S(C)(=O)=O (mixture of isomers)
36	-7	-12	5.4	Cc1ccccc1-c1ccccc1[C@@H]1[C@@H](C#N)N(C(=O)c2cccc(F)c2)[C@H]1CO
37	1	-3	3.2	CCC(=O)N1[C@@H](CO)[C@H](c2ccccc2)[C@@H]1CN(C(C)C)S(C)(=O)=O
38	2	2	0.4	Cc1cccc(S(=O)(=O)N2CC[C@H]3[C@H](CO)Nc4ccc(-c5ccccc5F)cc4[C@H]32)c1
39	9	-3	12	COCC(=O)N1[C@H](C#N)[C@@H](c2ccccc2-c2ccccc2)[C@H]1CO
40	-3	-2	-0.7	Cc1noc(C)c1S(=O)(=O)N(C)C[C@@H]1OCCCC[C@H](C)Oc2ccc(NS(=O)(=O)c3cccs3)cc2C(=O)N([C@H](C)CO)C[C@H]1C
41	4	5	-0.9	C[C@H]1CN([C@@H](C)CO)C(=O)CCCn2nncc2CO[C@@H]1CN(C)C(=O)c1ccc(N2CCN(C)CC2)cc1
42	12	4	8.2	C[C@@H]1CN([C@@H](C)CO)C(=O)c2ccccc2-c2ccccc2CO[C@@H]1CN(C)Cc1cccc(F)c1
43	-2	-3	0.6	CNC[C@H]1Oc2ccc(NC(=O)C3CCCCC3)cc2C(=O)N([C@@H](C)CO)C[C@@H]1C
44	-4	-3	-0.4	Cc1noc(C)c1NC(=O)Nc1ccc2c(c1)C(=O)N([C@H](C)CO)C[C@@H](C)[C@H](CN(C)S(=O)(=O)c1cccs1)OCCCC[C@H](C)O2
45	0	0	-0.6	CC=Cc1ccc2n(c1=O)C[C@H]1[C@H](CO)[C@@H](C(=O)NCC(F)(F)F)[C@@H]2N1C(=O)CC (mixture of isomers)
46	6	5	1.2	O=C(CC1CC1)N1[C@H](CO)[C@H](c2ccccc2)C12CN(S(=O)(=O)c1ccccc1)C2
47	0	3	-3.5	CCC(=O)NC[C@H]1N[C@H](CO)[C@@H]1c1ccc(-c2cccc(C#N)c2)cc1
48	1	-4	5.2	CCCN(C)C[C@H]1OCc2cn(nn2)CCCC(=O)N([C@@H](C)CO)C[C@H]1C
49	3	1	1.6	C[C@H]1CN([C@@H](C)CO)C(=O)Cc2cc(NS(C)(=O)=O)ccc2O[C@@H]1CN(C)C(=O)Nc1ccccc1
50	-2	8	-9.6	Cc1noc(C)c1S(=O)(=O)Nc1ccc2c(c1)C(=O)N([C@H](C)CO)C[C@H](C)[C@@H](CN(C)Cc1ccc(C(=O)Nc3ccccc3N)cc1)O2
51	4	0	3.9	CO[C@H](CN(C)C(=O)C1CCOCC1)[C@@H](C)CN(C(=O)Nc1ccc(F)cc1)[C@@H](C)CO
52	3	1	1.6	C[C@@H]1CN([C@H](C)CO)C(=O)CCCn2nncc2CO[C@@H]1CN(C)S(=O)(=O)c1cccc(F)c1
53	?	nt	nt	O=C(C[C@@H]1CC[C@H]2[C@@H](COC[C@@H](O)CN2C(=O)c2ccc(F)cc2)O1)Nc1ccc(-c2ccccc2)cc1
54	-7	-6	-1.2	O=C(N[C@@H]1CC[C@@H](CCn2cc(-c3ccccc3F)nn2)O[C@H]1CO)c1ccc2c(c1)OCO2
55	0	-3	3.6	CNC[C@H]1OCCCC[C@@H](C)Oc2ccc(NC(=O)CCC(F)(F)F)cc2C(=O)N([C@@H](C)CO)C[C@@H]1C
56	0	0	0.1	COc1ccccc1-c1ccc([C@H]2[C@H](C#N)N[C@@H]2CO)cc1
57	1	-4	4.8	O=C([C@H]1[C@H](CO)[C@H]2Cn3c(ccc(-c4cccnc4)c3=O)[C@H]2N1CCC(F)(F)F)N1CCOCC1
58	-4	-4	-0.3	CS(=O)(=O)Nc1ccc2c(c1)[C@@H]1C[C@@H](CC(=O)NCc3ccccn3)O[C@H](CO)[C@@H]1O2
59	-6	-4	-1.9	CCC(=O)N1[C@@H](CO)[C@@H]2c3ccccc3N(C(=O)NC(C)C)C[C@@H]21
60	-2	0	-1.6	CCCN1C[C@H](C)[C@H](OC)CN(C)C(=O)c2ccc(NC(=O)CC(F)(F)F)cc2OC[C@H]1C

The listing continues.
nr	DUX4 inh	DUX4 inh difference	DUX4 inh control	mol
61	?	nt	nt	CCCNC(=O)N1CC(=O)N2[C@@H](CO)[C@H](c3ccc(C#Cc4ccccc4)cc3)[C@@H]2C1
62	9&6	-6&7	15&-0.8	Cc1cccc(-c2ccc(C3[C@H]4CNC[C@@H]3N4CC3CCOCC3)cc2)c1 (stereo partly specified)
63	3	0	3.8	CCNC(=O)C[C@H]1CC[C@H]2[C@@H](COC[C@H](O)CN2C(=O)C2CCCC2)O1
64	-1	2	-2.1	COc1ccc(OC(=O)N(C)C[C@@H]2OCc3cn(nn3)CCCC(=O)N([C@H](C)CO)C[C@H]2C)cc1
65	-1	4	-5.0	N#C[C@H]1N[C@H](CO)[C@H]1c1ccc(C#Cc2cccnc2)cc1
66	6	0	6.0	COc1cccc(NC(=O)N2CC(=O)N3[C@H](C2)[C@@H](c2ccc(C#CCC4CCCC4)cc2)[C@@H]3CO)c1
67	-3	-1	-1.9	C[C@H](NC(=O)C[C@@H]1CC[C@H]2[C@H](COc3ccc(NS(=O)(=O)c4ccc(Cl)cc4)cc3C(=O)N2C)O1)c1ccccc1
68	1	4	-2.8	Cn1cnc(S(=O)(=O)N2CCCCN3[C@H](CO)[C@H](c4ccc(-c5cccc(F)c5)cc4)[C@H]3C2)c1
69	8	3	5.0	Cc1ccc(OC(=O)N(C)C[C@H]2OCc3ccccc3-c3ccccc3C(=O)N([C@@H](C)CO)C[C@H]2C)cc1
70	4	-6	10	C[C@H]1CN([C@@H](C)CO)C(=O)CCCn2nncc2CO[C@H]1CN(C)S(=O)(=O)c1ccc(C#N)cc1
71	-8	31	-39	N#C[C@@H]1N[C@@H](CO)[C@@H]1c1ccc(C2=CCCC2)cc1
72	0	-1	0.7	C[C@@H]1CN([C@H](C)CO)C(=O)c2cc(NC(=O)CCN3CCOCC3)ccc2O[C@@H]1CN(C)S(=O)(=O)c1cccs1
73	-1	-8	6.4	O=C(C[C@@H]1C=C[C@H](NC(=O)Nc2ccc3c(c2)OCO3)[C@@H](CO)O1)NCCCN1CCOCC1
74	14	-14	28	COc1ccccc1S(=O)(=O)N1CC[C@@H]2[C@H]1c1cc(-c3ccccc3)ccc1N[C@@H]2CO
75	3	2	1.1	C[C@@H]1CN([C@H](C)CO)C(=O)CCCn2cc(nn2)CO[C@H]1CN(C)C(=O)C1CC1
76	-3	-3	0.1	CCC(=O)N1[C@H](CO)[C@@H]2c3ccccc3N(C(=O)c3ccccc3F)C[C@@H]21
77	-3	1	-3.9	CCS(=O)(=O)Nc1ccc2c(c1)C(=O)N(C)[C@H]1CC[C@H](CC(=O)NCc3ccccc3F)O[C@H]1CO2
78	1	-1	2.1	C[C@H]1CN([C@@H](C)CO)C(=O)CCCn2nncc2CO[C@@H]1CN(C)Cc1cccc(O)c1

In the list so far, these contain a cyano group.
nr	DUX4 inh	DUX4 inh difference	DUX4 inh control	mol
23	5	2	2.8	COc1ccccc1-c1ccc([C@H]2[C@H](C#N)N(C(=O)CN(C)C)[C@H]2CO)cc1
36	-7	-12	5.4	Cc1ccccc1-c1ccccc1[C@@H]1[C@@H](C#N)N(C(=O)c2cccc(F)c2)[C@H]1CO
39	9	-3	12	COCC(=O)N1[C@H](C#N)[C@@H](c2ccccc2-c2ccccc2)[C@H]1CO
47	0	3	-3.5	CCC(=O)NC[C@H]1N[C@H](CO)[C@@H]1c1ccc(-c2cccc(C#N)c2)cc1
56	0	0	0.1	COc1ccccc1-c1ccc([C@H]2[C@H](C#N)N[C@@H]2CO)cc1
65	-1	4	-5.0	N#C[C@H]1N[C@H](CO)[C@H]1c1ccc(C#Cc2cccnc2)cc1
70	4	-6	10	C[C@H]1CN([C@@H](C)CO)C(=O)CCCn2nncc2CO[C@H]1CN(C)S(=O)(=O)c1ccc(C#N)cc1
71	-8	31	-39	N#C[C@@H]1N[C@@H](CO)[C@@H]1c1ccc(C2=CCCC2)cc1
